PrP UTR inh = suppresses PrP 5' UTR mRNA reporter expression; inhibition, % (concentration not given with the values); 0.35% of 340,000 active; AID 488862; cell-based PrP 5' UTR mRNA reporter, plate reader;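 active means every replicate at 50% or more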;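 further: 0 = median of the neutral control wells; tested in H4 reporter cells; numbers are from one replicate; inactives centre near -14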
Mtb hypoxia rep = reduces hypoxia-regulated biosensor signal in M. tuberculosis. M. tuberculosis hypoxia-regulated fluorescent reporter, fluorescence. fluorescence inhibition, % (concentration not given with the values). 0.1% of 300,000 active. AID 1159583;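 active means 35 to 45% if threefold the growth effect, above 45% if 1.5-fold the growth effect; inactive means the rest, general growth blockers included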;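 further: wells of about 50 µL received 100 nL stock; 0% = vehicle wells and 100% = reference inhibitor wells; whole bacteria with a GFP reporter of the hypoxia response; strong numbers were not always called active; many hits fall short of the cut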
BJeLR viability = BJeLR cell viability loss | AID 1554 | BJeLR (HRASV12) viability, CellTiter-Glo ATP luminescence, 48 h; reference of the scale not given here | 0.17% of 300,000 active | inhibition, % (no concentration beside the values);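 active means replicate mean above 50%; inconclusive means above 50% but judged a plate artefact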;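 further: 50 nL library stock added to about 25 µL; numbers are from one replicate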
RN4220 kill = kills Staphylococcus aureus RN4220; S. aureus RN4220 growth, OD600, 16 h; inhibition, % (test concentration not listed); 0.33% of 330,000 active;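 active means z-score of -3 or lower and OD600 up to 0.18 on both plates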;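 further: plate controls were untreated cells for no effect and reference antibiotic for full effect; stock transfer was 100 nL into about 80 µL; one replicate is shown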
ugtP null kill = growth inhibition of S. aureus ugtP deletion strain; S. aureus RN4220 ugtP deletion, OD600 growth, 16 h; some inactives read as strong as hits; growth inhibition, % (concentration not given with the values); 0.54% of 330,000 active;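 active means z-score under -3 and OD600 up to 0.15 on both plates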;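 further: plate controls were untreated wells for no effect and antibiotic for full effect; wells of about 80 µL received 100 nL stock; the first replicate is given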
Bead autofluor = compound fluorescence in toxin protease inhibitor counterscreen; fluorescence intensity (test concentration not listed); AID 624483; compound autofluorescence counterscreen, microsphere flow cytometry; hits give high values; 3.1% of 360,000 active;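 active means at least 3 SD above the mean of all compounds, about 16000 in these data; inconclusive means too few beads counted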;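 further: 100 nL of 1 mM stock went into each well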
Mtb hypoxia rep growth = recorded beside Mtb hypoxia rep, whose call it bears; growth inhibition, %; measured here: M. tuberculosis growth (absorbance);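 0% = vehicle and 100% = reference antibiotic; read after six days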
* = called active by the depositor; ? = inconclusive; / = not tested or not shown.

The line under a structure holds: PrP UTR inh	Mtb hypoxia rep	Mtb hypoxia rep growth	BJeLR viability	RN4220 kill	ugtP null kill	Bead autofluor
- C/C(=N/NC(=O)CNC(=O)c1ccccn1)c1ccccc1
  -35.8	/	/	3.0	/	/	2040
- Cc1ccc(CN(Cc2ccccc2)C(=S)NCC(=O)NCc2cccnc2)o1
  -20.0	7.4	8.1	-2.3	9.3	-0.3	4658
- COc1ccccc1CNC(=O)C(Cc1ccccc1)NC(=O)c1ccccc1 (stereo not given)
  -15.7	7.2	6.7	/	5.8	7.5	6174
- COc1ccc(NC(=O)CSc2nc(C)cc(C)n2)cc1
  -15.3	5.7	5.7	-7.8	-7.8	3.0	2483
- O=C(c1ccco1)N1CCN(c2ncnc3scc(-c4ccc(F)cc4)c23)CC1
  -4.3	/	/	0.5	2.3	8.8	2631
- [N-]=[N+]=CC(=O)C(O)(c1ccccc1)C(Cl)c1ccccc1 (stereo not given)
  /	5.3	-16.9	-1.2	4.3	9.9	4368
- Cc1[nH]c(C)c(S(=O)(=O)NCc2ccc(Cl)cc2)c1C(=O)N1CCCC1
  -10.2	1.9	8.6	7.8	0.8	-1.7	6562
- Cc1c(Cl)c(C(=O)NNC(=S)NCc2ccco2)nn1C
  -17.7	5.2	4.8	-12.5	2.4	11.1	3149
- Cc1csc(SCC(=O)N(c2ccccc2)C(C)C)n1
  2.0	4.8	2.9	/	-0.5	-3.1	3804
- O=C(COc1cccc(Br)c1)Nc1ccc(Cl)c(S(=O)(=O)N2CCOCC2)c1
  -17.6	11.2	4.7	/	-1.7	-8.7	3581
- CC(=O)OCC(=O)[C@@]1(O)CCC2C3CCC4=CC(=O)CC[C@]4(C)C3C(O)C[C@@]21C (stereo not given in full)
  /	6.2	14.2	/	2.5	-0.8	/
- CCN(CC)CCCNC(=O)c1cn(C)c2ccc(S(=O)(=O)N(C)C)cc2c1=O
  -32.7	/	/	1.2	-4.9	-6.0	6105
- Cc1ccc(-c2nnn(CC(=O)N3CCCCC3)n2)cc1
  -1.6	3.1	-0.6	-10.0	2.2	1.8	2889
- CCCn1cc(CN2CCC(Cc3ccccc3)(C(=O)OCC)CC2)c(C)n1
  -8.8	15.7	10.5	-14.4	5.7	-4.3	2614
- O=C1NC(=S)SC1=Cc1ccccc1Br
  -16.2	20.9	10.7	/	100.0*	100.1*	3778
- CCOC(=O)N1CCN(S(=O)(=O)c2ccc(OCC(=O)OC)c(C)c2)CC1
  -11.7	-2.1	0.5	5.2	1.6	7.1	25177*
- Cc1cccc(C(=O)N[C@H](C(=O)OCc2cc(=O)n3c(n2)sc2ccccc23)C(C)C)c1
  -12.5	6.0	-0.3	1.3	13.9	7.8	2001
- O=C(CSc1ccc(Cl)cc1)NC1=NN(c2ccccc2)C(=O)C1
  -11.3	2.9	4.4	-5.7	3.2	28.1	5585
- Cc1c(C(=O)N2CC3(CC(c4cccc(NC(=O)C5CCC(=O)N5)c4)=NO3)CC2C(N)=O)cc([N+](=O)[O-])cc1[N+](=O)[O-] (stereo not given)
  /	-5.0	-4.3	/	2.4	0.2	/
- O=C(NCc1cccnc1)c1cccc(S(=O)(=O)N2CCCC2)c1
  -10.0	12.7	13.1	2.9	-0.3	6.9	3108
- COc1ccc(Br)cc1CN(C)C(=O)c1ccccc1OCc1c(C)noc1C
  -34.3	-4.1	-5.9	-0.7	5.2	0.1	5703
- COCc1cccc(C(=O)NC(c2ccccc2)c2ccccc2)c1
  -22.6	6.1	-1.8	6.8	-0.4	18.7	3630
- CN(C)CCCN(C(=O)c1ccc2c(c1)OCCO2)c1nc2cc3c(cc2s1)OCO3
  -2.2	10.0	-8.0	1.8	-3.7	8.5	4402
- Cc1cc(SCC(=O)NCC2CCCO2)nc2ccccc12 (stereo not given)
  -25.4	1.6	5.4	-1.1	2.4	5.4	9299
- Cc1cccn2c(=O)nc(SCC(=O)N3N=C(c4cccs4)CC3c3ccc(F)cc3)nc12 (stereo not given)
  14.1	-2.9	2.4	7.3	-5.8	-15.0	4321
- CC(C)N(C(=O)[C@H]1C[C@H](CC(=O)NCCN2CCOCC2)C(=O)N2CCc3c([nH]c4cc(CCC(=O)N(C)C)ccc34)[C@]12C)C(C)C
  -13.9	-0.4	-1.7	/	2.6	6.3	3434
- COc1ccc(C(=O)N(C)Cc2cnn(Cc3ccccc3)c2)cc1S(=O)(=O)N1CCOCC1
  -39.3	11.8	8.1	/	4.6	1.7	8211
- CN(C(=O)c1ccncc1)c1ccccc1
  -17.1	12.3	4.1	1.6	3.8	6.1	4102
- Cc1cccc(NC(=O)c2ccc3nccnc3c2)n1
  -28.3	-1.7	-7.0	0.0	1.0	-14.7	4407
- CCOC(=O)N1CCN(CC(=O)Nc2ccc(OC)cc2)CC1
  -10.7	12.2	7.6	1.1	7.6	-5.8	4071
- COc1ccc(C(=O)c2ccc([N+](=O)[O-])cc2)c(OC)c1OC
  -39.4	6.5	2.0	/	26.3	0.5	3889
- C(=NNc1ncnc2nc[nH]c12)c1cccs1
  /	1.5	6.3	/	2.0	3.4	/
- COc1cc(C(=O)Nc2nnc(C(F)(F)F)s2)c([N+](=O)[O-])cc1OC
  -24.0	12.4	0.9	-9.7	3.7	0.2	2501
- COc1ccc(NC=CC(=O)c2ccc(Oc3ncccn3)cc2)cc1
  /	11.2	3.6	/	3.7	0.4	/
- COc1ccccc1/C=C/C(=O)NCC(=O)NN=C(CCC(=O)O)c1ccccc1
  /	-7.0	6.0	/	4.2	9.0	/
- O=C(CCc1nc2ccccc2c(=O)[nH]1)Nc1cccc(S(=O)(=O)N2CCOCC2)c1
  -48.3	10.9	6.4	-4.7	-1.9	2.6	?
- O=C(/C=C/c1ccccc1Cl)N(Cc1ccccc1)C1CCS(=O)(=O)C1 (stereo not given)
  -25.2	4.6	3.9	-3.4	0.4	11.5	2519
- Cc1ccc(S(=O)(=O)N2CCCCC2)cc1NC(=O)c1cc(F)c(F)c(F)c1F
  -13.7	7.7	10.3	/	6.5	-6.8	4141
- O=C(O)c1ccc(N/N=C/c2c(F)cccc2Cl)cc1
  15.0	/	/	-0.1	/	/	3784
- O=C(Nc1csc(Cl)c1)c1ccccc1
  -76.5	8.1	10.4	0.2	4.6	-9.3	/
- Cn1nnnc1SCC(=O)Nc1ccc2c(c1)OCCO2
  -40.2	-3.7	2.4	-3.9	-0.5	-7.7	4567
- Cc1ccc(C)c(NC(=O)CN(C)C(=O)COc2ncnc3sccc23)c1
  -9.3	15.1	4.5	-7.3	5.4	2.4	2498
- O=C(N/N=C/c1cc([N+](=O)[O-])ccc1O)c1ccc2c(c1)OCCO2
  -0.5	/	/	-3.5	/	/	9713
- CCn1nc([N+](=O)[O-])c(C(C#N)c2nc3ccccc3n2C)c(Cl)c1=O (stereo not given)
  -17.7	11.6	7.1	-8.6	13.2	-5.4	2516
- CCOc1ccc(N2CC(C(=O)NCCc3ccc(F)cc3)CC2=O)cc1 (stereo not given)
  -10.2	11.3	17.6	-0.1	0.6	7.4	6104
- CCOC(=O)C(CC)n1cnc2c(nnn2-c2ccc(C)cc2)c1=O (stereo not given)
  -26.7	4.0	1.0	-0.7	-1.4	5.2	15626
- COc1ccc(C(=O)NCc2ccc(-n3cccc3)cc2)cc1OC
  -23.8	4.4	-4.2	5.9	7.5	13.7	2317
- COC(=O)C1=C(Nc2ccccc2NS(=O)(=O)c2ccc(C(F)(F)F)cc2Cl)CSC1
  -10.3	11.3	8.5	8.0	7.2	-9.9	/
- CC(C)NC(=O)CSc1nc2sccc2c(=O)n1-c1ccccc1
  7.5	-3.5	7.2	-2.0	1.0	-1.8	5659
- COCCNC(=S)NCc1ccc2[nH]c3c(c2c1)CCCC3
  -22.0	2.7	2.8	20.2	-0.2	-7.9	5659
- c1ccc(CC2CNCCN2CC2(c3ccccc3)CC2)cc1 (stereo not given)
  /	4.4	0.9	/	1.7	2.1	/
- Cn1nccc1NC(=O)COCC(=O)O
  -16.9	4.0	-8.4	-6.1	4.7	10.1	6680
- O=C(NCc1ccc(Cl)cc1)c1cc([N+](=O)[O-])ccc1Cl
  -19.8	11.3	3.7	-4.0	2.2	-2.3	1942
- Nc1ccn(-c2ncc(C(F)(F)F)cc2Cl)c(=O)n1
  -19.2	-10.4	-3.0	6.1	2.2	-1.4	4243
- N/C(=N\N=Cc1ccc(F)cc1)NN=Cc1ccc(F)cc1
  /	1.7	1.5	/	5.7	-10.3	/
- Cc1cccc(C)c1OCc1n[nH]c(=S)o1
  73.2*	4.3	5.8	-3.7	18.9	0.1	2660
- Cc1nnc(SCC2=C(C(=O)O)N3C(=O)C(NC(=O)Cn4ncc(Cl)c4C)C3SC2)s1 (stereo not given)
  -31.7	/	/	-5.7	99.1*	98.7*	4140
- Cc1ccc(OCCC(=O)OCC(=O)NNC(=O)c2ccccc2)cc1
  -13.8	2.9	3.9	2.4	0.6	5.1	5263
- Cc1nc(S(=O)(=O)Cc2ccccc2)nc2c1CCC2
  -18.9	7.0	0.0	6.6	1.1	1.8	2638
- CC(=O)Nc1cc2c(cc1C(=O)c1ccccc1)OCCO2
  3.4	/	/	3.1	2.2	4.9	5898

Remaining list, next part
The line under a structure holds: PrP UTR inh	Mtb hypoxia rep	Mtb hypoxia rep growth	BJeLR viability	RN4220 kill	ugtP null kill	Bead autofluor
- NC(=S)N=Nc1ccc(NN=C(N)N)cc1
  3.5	/	/	4.0	/	/	3181
- CCCSc1nnc(NC(=O)Nc2ccc(F)cc2)s1
  -37.5	-7.3	10.9	14.5	8.7	-0.5	3274
- CC(=NNC(=S)NCc1ccccc1)c1ccc(C)o1
  /	-7.8	-5.9	/	11.1	4.7	/
- CCCCCCCCCCCCCC(=O)O
  4.1	7.0	0.5	/	-2.2	6.2	5251
- CCOc1ccc(OCC)c(NC(=O)CSc2nc3c(c(=O)n(C)c(=O)n3C)n2C(C)C)c1
  9.1	2.5	4.1	5.6	0.5	2.8	8054
- Cc1ccccc1OCC(=O)Nc1ccccc1C(=O)N1CCCCC1
  -4.9	2.4	-2.9	1.4	0.6	1.6	5241
- Cc1ccc(OCC(=O)NCCNC(=O)c2ccco2)cc1C
  -19.6	-2.1	9.6	-2.5	3.9	3.5	3786
- O=C(NCC(=O)N1CCN(S(=O)(=O)c2ccccc2F)CC1)c1ccc2ccccc2c1
  -17.4	1.4	15.7	-6.6	0.4	5.6	?

Taken from above, twelve compounds:
The line under a structure holds: PrP UTR inh	Mtb hypoxia rep	Mtb hypoxia rep growth	BJeLR viability	RN4220 kill	ugtP null kill	Bead autofluor
- N/C(=N\N=Cc1ccc(F)cc1)NN=Cc1ccc(F)cc1
  /	1.7	1.5	/	5.7	-10.3	/
- Cc1cccc(C)c1OCc1n[nH]c(=S)o1
  73.2*	4.3	5.8	-3.7	18.9	0.1	2660
- Cc1nnc(SCC2=C(C(=O)O)N3C(=O)C(NC(=O)Cn4ncc(Cl)c4C)C3SC2)s1 (stereo not given)
  -31.7	/	/	-5.7	99.1*	98.7*	4140
- Cc1ccc(OCCC(=O)OCC(=O)NNC(=O)c2ccccc2)cc1
  -13.8	2.9	3.9	2.4	0.6	5.1	5263
- Cc1nc(S(=O)(=O)Cc2ccccc2)nc2c1CCC2
  -18.9	7.0	0.0	6.6	1.1	1.8	2638
- CC(=O)Nc1cc2c(cc1C(=O)c1ccccc1)OCCO2
  3.4	/	/	3.1	2.2	4.9	5898
- NC(=S)N=Nc1ccc(NN=C(N)N)cc1
  3.5	/	/	4.0	/	/	3181
- CCCSc1nnc(NC(=O)Nc2ccc(F)cc2)s1
  -37.5	-7.3	10.9	14.5	8.7	-0.5	3274
- CC(=NNC(=S)NCc1ccccc1)c1ccc(C)o1
  /	-7.8	-5.9	/	11.1	4.7	/
- CCCCCCCCCCCCCC(=O)O
  4.1	7.0	0.5	/	-2.2	6.2	5251
- CCOc1ccc(OCC)c(NC(=O)CSc2nc3c(c(=O)n(C)c(=O)n3C)n2C(C)C)c1
  9.1	2.5	4.1	5.6	0.5	2.8	8054
- Cc1ccccc1OCC(=O)Nc1ccccc1C(=O)N1CCCCC1
  -4.9	2.4	-2.9	1.4	0.6	1.6	5241

High-throughput results deposited in PubChem by several laboratories.
